STAT3 binder = STAT3 binders, primary screen, biochemical, small molecule microarray, single point, set 2; 17,000 tested, 0.2% active; calls only; His-STAT3 binding, anti-His fluorescence; AID 624138, 2012;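 active = compounds whose four printed spots each show fluorescence over background unusually high for their array block, chance value under 7%; compounds were printed on slides so no solution concentration is given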;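 also: about 2 pmol printed per array spot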
Target sequence (P40763 whole entry, looked up): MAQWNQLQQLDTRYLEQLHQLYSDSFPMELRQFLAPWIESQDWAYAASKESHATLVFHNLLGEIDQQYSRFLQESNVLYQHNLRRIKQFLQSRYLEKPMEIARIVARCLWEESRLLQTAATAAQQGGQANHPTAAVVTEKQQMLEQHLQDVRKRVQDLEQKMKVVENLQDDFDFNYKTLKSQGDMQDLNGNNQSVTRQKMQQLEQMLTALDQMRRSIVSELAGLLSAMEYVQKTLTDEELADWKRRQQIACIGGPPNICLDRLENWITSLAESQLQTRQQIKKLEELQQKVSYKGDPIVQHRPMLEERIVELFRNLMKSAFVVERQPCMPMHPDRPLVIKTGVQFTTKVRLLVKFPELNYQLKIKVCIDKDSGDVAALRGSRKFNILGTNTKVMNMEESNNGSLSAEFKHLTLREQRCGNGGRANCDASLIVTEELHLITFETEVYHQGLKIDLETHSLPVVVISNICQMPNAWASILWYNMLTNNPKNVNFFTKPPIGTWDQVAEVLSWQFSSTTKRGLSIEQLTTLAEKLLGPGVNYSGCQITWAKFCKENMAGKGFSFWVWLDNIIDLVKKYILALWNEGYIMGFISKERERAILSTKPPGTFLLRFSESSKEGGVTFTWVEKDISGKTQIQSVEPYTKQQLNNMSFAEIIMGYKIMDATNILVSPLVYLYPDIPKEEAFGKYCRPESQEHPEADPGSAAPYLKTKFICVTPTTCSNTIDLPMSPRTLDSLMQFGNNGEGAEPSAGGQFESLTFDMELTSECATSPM
ID4 SMM = binders of human ID4 protein, primary screen, biochemical, small molecule microarray, single point; DNA-binding protein inhibitor ID-4 (Homo sapiens), P47928; Flag-ID4 binding, fluorescence F/B; calls only; 31,000 tested, 1.2% active; AID 624137, 2012;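 active = spot signal over background at p below 0.07 in all four prints; compounds were printed on slides so no solution concentration is given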;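 also: a binder raises fluorescence above local background on the spot; about 2 pmol printed per array spot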
Target sequence (P47928 whole entry, looked up): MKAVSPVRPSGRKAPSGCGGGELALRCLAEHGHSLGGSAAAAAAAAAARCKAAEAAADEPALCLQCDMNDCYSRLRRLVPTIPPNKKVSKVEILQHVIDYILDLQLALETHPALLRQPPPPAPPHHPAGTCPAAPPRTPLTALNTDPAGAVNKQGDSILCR
mut p53 SMM = binders of human mutant p53, primary screen, biochemical, small molecule microarray, anti-GST fluorescence; small molecule microarray binding; AID 624136, 2012; mutant tumor protein p53 (GST-tagged), Homo sapiens; calls only; 17,000 tested, 0.4% active;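 active = compounds whose four printed spots each glow above background more than chance allows, each with a p-value under 7%; compounds were printed on slides so no solution concentration is given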;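 also: about 2 pmol printed per array spot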
c-Myc SMM = binders of human c-Myc, primary screen, biochemical, small molecule microarray, anti-His fluorescence; Myc proto-oncogene protein (Homo sapiens), P01106; 17,000 tested, 1.5% active; His-c-Myc binding; calls only;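 active = spot fluorescence over background with P-value below 7% in all four replicate spots, showing protein binding; compounds were printed on slides so no solution concentration is given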;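 also: score is binary with 100 for all four spots passing and 0 otherwise; about 2 pmol printed per array spot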
Calls only; i = inactive; / = not tested or not shown; + = active, no number. A portion of the library, so the mix of outcomes need not match the whole.

Structure,STAT3 binder,ID4 SMM,mut p53 SMM,c-Myc SMM
Cc1cc(C)c(S(=O)(=O)N(C)CC(=O)O)c(C)c1,i,i,i,i
C[C@@H]1CCCCO[C@H](CN(C)C(=O)CCC(F)(F)F)[C@H](C)CN([C@H](C)CO)C(=O)c2cc(N(C)C)ccc2O1,i,i,i,i
C[C@@H]1CCCCO[C@@H](CN(C)C(=O)Nc2ccc3c(c2)OCO3)[C@H](C)CN([C@H](C)CO)C(=O)c2cc(NS(C)(=O)=O)ccc2O1,i,i,i,i
Cc1nc(SC(C(=O)O)c2ccccc2)cc(-c2ccccc2)n1 (stereo unspecified),i,i,i,i
COc1cc(OC)cc(-c2nnc(SCc3cccc(C(=O)O)c3)o2)c1,i,i,i,i
C[C@H](CO)N1C[C@H](C)[C@H](CN(C)Cc2ccc3c(c2)OCO3)Oc2ccc(NC(=O)CCC(F)(F)F)cc2CC1=O,i,i,i,i
C[C@@H]1CCCCO[C@H](CN(C)S(=O)(=O)c2cn(C)cn2)[C@@H](C)CN([C@@H](C)CO)C(=O)c2cc(NC(=O)c3ccccc3)ccc2O1,i,i,i,i
O=C1CSC2=NC3(CO)Oc4ccccc4[C@H]([C@H]3CO)N12,i,i,i,i
Cc1noc(C)c1NC(=O)N(C)C[C@@H]1Oc2c(NS(=O)(=O)c3cn(C)cn3)cccc2C(=O)N([C@@H](C)CO)C[C@@H]1C,i,i,i,i
Cc1noc(C)c1NC(=O)Nc1ccc2c(c1)C(=O)N([C@H](C)CO)C[C@H](C)[C@@H](CN(C)C(=O)Nc1c(C)noc1C)OCCCC[C@@H](C)O2,i,i,i,i
CC(C)NC(=O)N(C)C[C@@H]1OCCCC[C@@H](C)Oc2ccc(NC(=O)CCCN(C)C)cc2C(=O)N([C@H](C)CO)C[C@H]1C,i,i,i,i
C[C@@H]1CN([C@H](C)CO)C(=O)Cc2cc(NS(=O)(=O)c3cccs3)ccc2O[C@H]1CN(C)S(=O)(=O)c1ccccc1,i,i,i,i
COC(=O)Cc1c(/C(Cl)=C/C(=O)O)oc2cc(C)cc(O)c2c1=O,i,/,i,i
Cc1noc(C)c1S(=O)(=O)N(C)C[C@H]1OCCCC[C@@H](C)Oc2ccc(NC(=O)NC3CCCCC3)cc2C(=O)N([C@@H](C)CO)C[C@H]1C,i,/,i,i
O=C1O[C@@H](c2ccccc2)[C@@H](c2ccccc2)N2[C@@H](c3ccccc3OCCO)[C@]3(C(=O)Nc4ccc(C#CCCO)cc43)[C@@H](C(=O)Nc3nc4ccccc4s3)[C@H]12,i,i,i,i
O=C(NCCCN1CCOCC1)c1cccnc1,i,i,i,i
CCC(C)CCCCCCCCC1CC(=O)NC(CCC(N)=O)C(=O)NC(CC(C)C)C(=O)NC(CC(C)C)C(=O)NC(C(C)C)C(=O)NC(CC(=O)O)C(=O)NC(CC(C)C)C(=O)NC(C(C)C)C(=O)O1 (stereo unspecified),i,i,i,i
C[C@@H]1CCCCO[C@@H](CN(C)C)[C@@H](C)CN([C@H](C)CO)C(=O)c2cc(NC(=O)CCCN(C)C)ccc2O1,i,i,i,i
O=C(CSc1nnc(-c2ccccc2)n1-c1ccccc1)Nc1ccc(Br)cc1,i,i,i,i
Cc1noc(C)c1NC(=O)N(C)C[C@H]1OCCCC[C@H](C)Oc2ccc(NS(=O)(=O)c3cccs3)cc2C(=O)N([C@@H](C)CO)C[C@@H]1C,i,i,i,i
CN(C)CCCCNC(=O)[C@@H]1C[C@@H]2C(=O)N[C@@H](Cc3ccccc3)C(=O)N2[C@@H]1c1ccc(O)cc1,i,/,i,i
Cc1noc(C)c1S(=O)(=O)Nc1ccc2c(c1)C(=O)N([C@H](C)CO)C[C@H](C)[C@@H](CN(C)C(=O)c1ccncc1)OCCCC[C@H](C)O2,i,i,i,i
C[C@@H]1CCCCO[C@@H](CN(C)C(=O)Nc2ccccc2)[C@@H](C)CN([C@H](C)CO)C(=O)c2cc(N(C)C)ccc2O1,i,i,i,i
C[C@H]1CN([C@@H](C)CO)C(=O)c2cccc(NC(=O)C3CCOCC3)c2O[C@H]1CN(C)S(=O)(=O)c1cn(C)cn1,i,i,i,i
COc1ccc(CN(C)C[C@H]2Oc3c(NC(=O)c4cc(C)nn4C)cccc3C(=O)N([C@H](C)CO)C[C@@H]2C)cc1,i,i,i,i

The list continues.
Structure,STAT3 binder,ID4 SMM,mut p53 SMM,c-Myc SMM
O=C1O[C@H](c2ccccc2)[C@H](c2ccccc2)N2[C@H]1[C@@H](C(=O)N1CCN(c3ncccn3)CC1)[C@]1(C(=O)Nc3ccccc31)[C@H]2c1ccccc1OCCO,i,/,i,i
CNC[C@H]1OCCCC[C@@H](C)Oc2ccc(NC(=O)Nc3cccc4ccccc34)cc2C(=O)N([C@@H](C)CO)C[C@H]1C,i,i,i,i
C[C@@H]1CCCCO[C@H](CN(C)C)[C@H](C)CN([C@H](C)CO)C(=O)c2cc(NC(=O)Nc3ccc4c(c3)OCO4)ccc2O1,i,i,i,i
C[C@@H]1CN([C@H](C)CO)C(=O)c2cccc(NC(=O)NC3CCCCC3)c2O[C@@H]1CN(C)C(=O)NC1CCCCC1,i,i,i,i
COc1ccc(OCC(=O)Nc2ccc3c(c2)C(=O)NC3=O)cc1,i,i,i,i
C[C@H]1CN([C@@H](C)CO)C(=O)c2cccc(NC(=O)c3ccncc3)c2O[C@@H]1CN(C)S(=O)(=O)c1ccc(F)cc1,i,i,i,i
C#CCN1[C@H](/C=C/C2CC2)[C@H](Cc2ccccc2)OC(=O)[C@@H]1[C@@H]1N[C@@H](C(=O)OC)C(C)(C)S1,i,i,i,i
CCC(=O)Nc1ccc(S(=O)(=O)Nc2nccc(/C=C/c3ccccc3Cl)n2)cc1,i,i,i,i
C[C@@H]1CN([C@@H](C)CO)C(=O)c2cccc(NC(=O)c3ccc(-c4nccs4)cc3)c2O[C@H]1CN(C)S(=O)(=O)c1cn(C)cn1,i,i,i,i
CCC(C)C1NC(=O)c2c1n(C)c1ccccc1c2=O (stereo unspecified),i,i,i,i
C[C@H]1CN([C@@H](C)CO)C(=O)c2cccc(NS(=O)(=O)c3ccc(Cl)cc3)c2O[C@H]1CN(C)S(=O)(=O)c1cn(C)cn1,i,i,i,i
C[C@@H]1CN([C@@H](C)CO)C(=O)c2cc(N(C)C)ccc2O[C@H]1CN(C)Cc1ccc2c(c1)OCO2,i,i,i,i
Cn1c(SCC(=O)Nc2ccc(Br)cc2)nnc1-c1ccccn1,i,i,i,i
CCOC(=O)c1c(-c2ccc(C)o2)csc1NC(=O)CN1C(=O)c2ccccc2C1=O,i,i,i,i
C[C@@H]1CN([C@@H](C)CO)C(=O)c2cc(NC(=O)Cc3ccccc3)ccc2O[C@H]1CN(C)C,i,i,i,i
Cc1cc(C)nc(SCC(=O)c2cc3ccccc3oc2=O)n1,i,i,i,i
C[C@@H]1CN([C@@H](C)CO)C(=O)c2cc(NC(=O)Nc3ccc(F)cc3)ccc2O[C@H]1CN(C)C(=O)NC1CCCCC1,i,i,i,i
C=CCNC(=O)[C@@H]1[C@H]2C(=O)O[C@H](c3ccccc3)[C@H](c3ccccc3)N2[C@H](c2ccc(OCCO)cc2)[C@@]12C(=O)Nc1ccc(C#CC3(O)CCCCCC3)cc12,i,/,i,i
CCO[C@@H]1OC(C(=O)Nc2ccccc2)=C[C@H](C)[C@H]1CCCO,i,i,i,i
C[C@H](CO)N1C[C@H](C)[C@H](CN(C)C)Oc2ncc(-c3ccc(F)cc3)cc2C1=O,i,i,i,i
Cn1c(CN2CCOCC2)nnc1SCC(=O)N1CCc2ccccc21,i,i,i,i
CCn1c(SCC(=O)Nc2ccc(F)cc2F)nnc1-c1ccco1,i,i,i,i
C[C@@H]1CN([C@H](C)CO)C(=O)c2cc(N(C)C)ccc2O[C@H]1CN(C)Cc1ccncc1,i,i,i,i
CCCN(C)C[C@@H]1Oc2ncc(-c3cc4ccccc4o3)cc2C(=O)N([C@H](C)CO)C[C@@H]1C,i,i,i,i
C[C@H]1CCCCO[C@@H](CN(C)C(=O)c2ccccc2)[C@@H](C)CN([C@@H](C)CO)C(=O)c2cc(NS(C)(=O)=O)ccc2O1,i,i,i,i

Exported with each value named: three of the compounds above.
C[C@@H]1CN([C@H](C)CO)C(=O)c2cc(N(C)C)ccc2O[C@H]1CN(C)Cc1ccncc1
  STAT3 binder: i | ID4 SMM: i | mut p53 SMM: i | c-Myc SMM: i

Cn1c(SCC(=O)Nc2ccc(Br)cc2)nnc1-c1ccccn1
  STAT3 binder: i | ID4 SMM: i | mut p53 SMM: i | c-Myc SMM: i

CCn1c(SCC(=O)Nc2ccc(F)cc2F)nnc1-c1ccco1
  STAT3 binder: i | ID4 SMM: i | mut p53 SMM: i | c-Myc SMM: i

Part of the list above, with each value named.
> C#CCN1[C@H](/C=C/C2CC2)[C@H](Cc2ccccc2)OC(=O)[C@@H]1[C@@H]1N[C@@H](C(=O)OC)C(C)(C)S1
  STAT3 binder = i
  ID4 SMM = i
  mut p53 SMM = i
  c-Myc SMM = i
> C[C@@H]1CN([C@@H](C)CO)C(=O)c2cc(NC(=O)Cc3ccccc3)ccc2O[C@H]1CN(C)C
  STAT3 binder = i
  ID4 SMM = i
  mut p53 SMM = i
  c-Myc SMM = i

Going on with the list.
Results follow in this order: STAT3 binder | ID4 SMM | mut p53 SMM | c-Myc SMM
> C[C@H](CO)N1C[C@H](C)[C@@H](CN(C)S(=O)(=O)c2cccs2)Oc2ccc(NC(=O)C3CC3)cc2CC1=O
 : i | i | i | i
> C[C@H]1CN([C@@H](C)CO)C(=O)c2cc(NC(=O)Nc3ccc4c(c3)OCO4)ccc2O[C@@H]1CN(C)C(=O)Nc1ccc2c(c1)OCO2
 : i | i | i | i
> O=C(O)c1ccc(-c2ccc3cc(C45CC6CC(CC(C6)C4)C5)c(O)cc3c2)cc1
 : i | / | i | i
> C[C@H]1CN([C@@H](C)CO)C(=O)CCCn2nncc2CO[C@@H]1CN(C)Cc1ccccc1
 : i | i | i | i
> C[C@@H]1CN([C@@H](C)CO)C(=O)Cc2cc(NS(=O)(=O)c3cn(C)cn3)ccc2O[C@@H]1CN(C)Cc1ccc(C(F)(F)F)cc1
 : i | i | i | i
> Cc1noc(C)c1NC(=O)Nc1ccc2c(c1)C(=O)N([C@@H](C)CO)C[C@@H](C)[C@H](CN(C)C(=O)CCCN(C)C)OCCCC[C@@H](C)O2
 : i | i | i | i
> CC(C)(O)CC[C@@H](O)[C@](C)(O)[C@H]1CC[C@@]2(O)C3=CC(=O)[C@@H]4C[C@@H](O)[C@@H](O)C[C@]4(C)C3CC[C@]12C (stereo partly specified)
 : i | i | i | i
> CC(C)NC(=O)N(C)C[C@@H]1OCCCC[C@@H](C)Oc2ccc(NC(=O)Nc3ccc(F)cc3)cc2C(=O)N([C@H](C)CO)C[C@@H]1C
 : i | i | i | i
> CN(Cc1ccccc1)C(=O)[C@H](Cc1ccc2ccccc2c1)NC(=O)[C@@H]1C[C@@H](O)CN1C(=O)c1cn(C)c2ccccc12
 : i | i | i | i
> C[C@H]1CN([C@@H](C)CO)C(=O)c2cc(NC(=O)NC3CCCCC3)ccc2O[C@@H]1CN(C)C(=O)Nc1cccc2ccccc12
 : i | i | i | i
> C=CC[C@]12N=C(c3ccc(OCCCO)cc3)O[C@H]1c1ccccc1CN(C(=O)c1ccccc1)C2=O
 : i | / | i | i
> C[C@H]1CN([C@@H](C)CO)C(=O)c2cccc(NC(=O)c3ccncc3)c2O[C@@H]1CN(C)CC1CC1
 : i | i | i | i
> CC12CCC(C(=O)NCCN3CCOCC3)(OC1=O)C2(C)C (stereo unspecified)
 : i | i | i | i
> O=C(OC(C(=O)NCc1ccccc1)c1cccs1)c1ccccc1 (stereo unspecified)
 : i | i | i | i
> CNC[C@@H]1Oc2ccc(NC(=O)Cc3cn(C)c4ccccc34)cc2CC(=O)N([C@@H](C)CO)C[C@H]1C
 : i | + | i | i
> C[C@@H]1CN([C@@H](C)CO)C(=O)c2cc(NC(=O)c3ccncc3)ccc2O[C@H]1CN(C)C
 : i | i | i | i
> Cc1ccccc1NC(=O)CSc1nc(N)c(C#N)cc1C#N
 : i | i | i | i
> COc1ccc(CN(C)C[C@@H]2Oc3ccc(NC(=O)C4CC4)cc3CC(=O)N([C@@H](C)CO)C[C@@H]2C)cc1
 : i | i | i | i
> C[C@H]1CN([C@@H](C)CO)C(=O)Cc2cc(NC(=O)CCC(F)(F)F)ccc2O[C@@H]1CN(C)C(=O)Nc1cccc2ccccc12
 : i | i | i | i
> C[C@H](CO)N1C[C@H](C)[C@H](CN(C)C(=O)NC2CCCCC2)Oc2ncc(C#Cc3ccc(F)cc3)cc2C1=O
 : i | i | i | i
> C[C@@H]1CN([C@H](C)CO)C(=O)CCCn2nncc2CO[C@H]1CN(C)S(=O)(=O)c1ccc(Cl)cc1
 : i | i | i | i
> C[C@@H]1CCCCO[C@H](CN(C)C(=O)C2CCCCC2)[C@@H](C)CN([C@@H](C)CO)C(=O)c2cc(NC(=O)c3ccncc3)ccc2O1
 : i | + | i | i

Source: PubChem BioAssay
